Compound activity as filed in PubChem BioAssay.
RN4220 kill – S. aureus RN4220 growth inhibition. OD600, 16 h. inhibition, % (test concentration not listed). actives 0.33% (n = 330,000);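 active = z-score of -3 or lower and OD600 up to 0.18 on both plates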;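 also: plate controls were untreated cells for no effect and reference antibiotic for full effect; stock transfer was 100 nL into about 80 µL; one replicate is shown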
Sa ugtP lethal – compounds lethal to S. aureus RN4220 ugtP deletion mutant | AID 1259309 | OD600 growth, 16 h; some inactives read as strong as hits | growth inhibition, % (test concentration not listed) | actives 0.54% (n = 330,000);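 active = z-score under -3 and OD600 up to 0.15 on both plates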;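 also: plate controls were untreated wells for no effect and antibiotic for full effect; wells of about 80 µL received 100 nL stock; the first replicate is given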
BJeLR lethal – BJeLR cell viability loss | actives 0.17% (n = 300,000) | inhibition, % (concentration not given with the values) | BJeLR (HRASV12) viability, CellTiter-Glo ATP luminescence, 48 h; reference of the scale not given here;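 active = replicate mean above 50%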;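 also: 50 nL library stock added to about 25 µL; numbers are from one replicate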
PrP 5UTR inh – suppresses PrP 5' UTR mRNA reporter expression. actives 0.35% (n = 340,000). inhibition, % (no concentration beside the values). cell-based PrP 5' UTR mRNA reporter, plate reader. AID 488862;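 active = every replicate at 50% or more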;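 also: 0 = median of the neutral control wells; tested in H4 reporter cells; numbers are from one replicate; inactives centre near -14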
Autofluor counter – flagged as autofluorescent in microsphere protease counterscreen; fluorescence intensity (test concentration not listed); AID 624483; compound autofluorescence counterscreen, microsphere flow cytometry; hits give high values; actives 3.1% (n = 360,000);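 active = at least 3 SD above the mean of all compounds, about 16000 in these data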;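 also: 100 nL of 1 mM stock went into each well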
Mtb hypoxia inh – reduces hypoxia-regulated biosensor signal in M. tuberculosis | M. tuberculosis hypoxia-regulated fluorescent reporter, fluorescence | fluorescence inhibition, % (test concentration not listed) | actives 0.1% (n = 300,000) | AID 1159583;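 active = 35 to 45% if threefold the growth effect, above 45% if 1.5-fold the growth effect; inactive = the rest, general growth blockers included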;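 also: wells of about 50 µL received 100 nL stock; 0% = vehicle wells and 100% = reference inhibitor wells; whole bacteria with a GFP reporter of the hypoxia response; strong numbers were not always called active; many hits fall short of the cut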
Mtb hypoxia inh growth – further read-out of Mtb hypoxia inh, marked with its call; growth inhibition, %; measured here: M. tuberculosis growth (absorbance);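 0% = vehicle and 100% = reference antibiotic; read after six days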
Numbers without * were called inactive; nt = not tested or not shown. Compounds as they come (roughly 4% active in at least one column).

SMILES	RN4220 kill	Sa ugtP lethal	BJeLR lethal	PrP 5UTR inh	Autofluor counter	Mtb hypoxia inh	Mtb hypoxia inh growth
COc1ccccc1-c1nn2c(=O)cc(C)nc2s1	4.0	3	4	-41	3924	nt	nt
CCOC(=O)CNC(=O)Nc1nnc(-c2ccc(OCC)cc2)o1	2.0	4	-5	-16	4374	3	1
COC(=O)C(C(=O)OC)c1ccccc1[N+](=O)[O-]	1.0	3	0	-27	2768	nt	nt
O=C(C1CCCN(c2ncnc3c2nc2n3CCCCC2)C1)N1CCN(c2ccc(F)cc2)CC1 (stereo not drawn)	2.9	4	13	-20	5316	10	13
CCC(=O)Nc1ccc(-c2cc(-c3ccccc3)nc(-c3ccc(NC(=O)CC)cc3)n2)cc1	-3.5	-24	1	-13	4204	-7	0
COc1cccc(C(=O)NC(=S)Nc2ccc(Cl)c(C(=O)O)c2)c1	-1.0	0	-2	-4	3591	nt	nt
Cc1ccc(NC(=O)CN(C)CC(=O)Nc2ccccc2C(=O)Nc2ccccc2)cc1	5.2	11	-12	-8	4281	7	14
Cc1ccc(C=NNC(=O)c2cc(-c3cccnc3)nc3ccccc23)cc1	5.0	14	nt	nt	nt	13	11
CC1(C)CC(=O)c2cnc(NC(=O)c3ccco3)nc2C1	-12	-2	2	-26	3205	17	2
COc1ccc(Br)cc1CN(C)C(=O)CNC(=O)c1ccc2ccccc2c1	4.2	0	-6	-21	3926	11	2
COC(CN(C)C(=O)C1CCC(CNS(=O)(=O)c2ccc(C)cc2)CC1)OC (stereo not drawn)	-3.2	-4	0	-18	3708	12	4
CN(Cc1ccccc1)CC(O)COc1ccc(CNCc2cccnc2)cc1 (stereo not drawn)	nt	nt	12	-2	5031	nt	nt
CN1CCN(c2ncnc3ccc(Br)cc23)CC1	4.5	-9	-5	-20	10156	10	7
COc1ccc(CNC(=O)/C=C/c2ccco2)cc1OC	1.2	-7	1	-19	4254	-2	5
COc1ccc(C)cc1NCc1ccc(OC)c(C)c1OC	-2.3	23	-10	-21	4086	16	4
CC(C)CN(C(=O)CCNC(=O)c1ccccc1Cl)C1CCS(=O)(=O)C1 (stereo not drawn)	4.8	5	nt	12	2790	-3	-17
Cn1nc(C(=O)NC2=NCCS2)ccc1=O	3.1	4	-6	23	2413	nt	nt
CCCSc1nc(O)c(CC)c(=O)n1C(C)CC (stereo not drawn)	-0.3	-3	10	-39	19471*	5	11
CC1(C)Cc2c(sc3c2C(=O)N(c2ccccc2)C2=NCCN23)CS1	10	3	-13	-15	3206	1	11
CCn1c(SCC(=O)NC2CCCC2)nc2c1c(=O)n(C)c(=O)n2C	nt	nt	-2	-10	3545	nt	nt

Reprinted from the part before: 4 entries, then new ones.
SMILES	RN4220 kill	Sa ugtP lethal	BJeLR lethal	PrP 5UTR inh	Autofluor counter	Mtb hypoxia inh	Mtb hypoxia inh growth
Cn1nc(C(=O)NC2=NCCS2)ccc1=O	3.1	4	-6	23	2413	nt	nt
CCCSc1nc(O)c(CC)c(=O)n1C(C)CC (stereo not drawn)	-0.3	-3	10	-39	19471*	5	11
CC1(C)Cc2c(sc3c2C(=O)N(c2ccccc2)C2=NCCN23)CS1	10	3	-13	-15	3206	1	11
CCn1c(SCC(=O)NC2CCCC2)nc2c1c(=O)n(C)c(=O)n2C	nt	nt	-2	-10	3545	nt	nt
O=C(Nc1ccc(F)cc1)c1ccc(S(=O)(=O)N2CCOCC2)o1	3.6	-1	2	nt	3962	1	-2
CCCCC(=O)Nc1cccc(C(=O)Nc2ccccc2C(=O)O)c1	4.7	6	1	-10	2714	0	5
O=C(CSc1nnc(-c2ccccc2Cl)o1)N1CCOCC1	3.1	3	1	-49	3603	12	4
O=C(/C=C/c1ccccc1)NNc1ccc(Cl)cc1	-5.8	4	-2	-5	4326	6	0
COc1ccc(OC(=O)c2ccc(Cl)cc2)c(C(C)=O)c1	4.5	5	6	-12	2085	6	5
COc1ccc(CN2CCNC(=O)C2CC(=O)NC2CCCC2)c(OC)c1 (stereo not drawn)	2.7	-2	6	-16	5868	-8	-3
COc1cccc(C2CC(c3cccs3)=NN2C(=O)CSC2=NN3CCCC(=O)N=C3S2)c1OC (stereo not drawn)	7.4	10	-1	-11	4705	2	-1
O=C(Nc1ccc(CN2CCCCC2)cc1)c1cccc(F)c1	4.5	5	-2	-17	3277	12	0
Nc1nonc1C(=O)OCC(=O)N1CCCCC1	2.7	11	-3	-21	4951	nt	nt
Oc1c(CN2CCCC(C(F)(F)F)C2)cc(Cl)c2ccccc12 (stereo not drawn)	1.0	12	-4	-9	3195	6	7
Cc1ccc(NC(=O)COC(=O)CCc2c(C)nc3nc(N)nn3c2C)cc1C	1.8	7	nt	-20	11518	5	3
Cc1ccc(C)c(C(=O)COC(=O)c2cc([N+](=O)[O-])ccc2N2CCOCC2)c1	1.6	8	-16	-37	5899	8	5
COC(=O)CN1C(=O)[C@H]2[C@@H](c3ccc(C)o3)N3C(=O)CN(Cc4ccccc4)C(=O)[C@@]3(Cc3ccccc3)[C@H]2C1=O	22	19	-5	5	3949	-4	-5
O=C(OCc1cccc2ccccc12)c1ccc2c(=O)[nH]c(CN3CCOCC3)nc2c1	2.2	-1	3	-9	6807	13	10
COc1ccc(CC(=O)Nc2ccc3c(c2)CCC3)cc1S(=O)(=O)N1CCOCC1	2.0	4	-2	-21	3181	nt	nt
CCCCN1C(N)=NC[C@@H]1c1ccccc1	nt	nt	4	-16	3432	nt	nt
CC(Sc1nnc(-c2cccnc2)o1)C(=O)NC1CCCCC1 (stereo not drawn)	5.5	10	nt	-18	8522	13	4
C=Cc1ccc(Cn2c(=O)n(C)c(=O)c3sccc32)cc1	-0.6	-5	3	-6	3606	-7	5
CCOC(=O)C1CCCN(C(=O)c2cc3c(=O)n4ccccc4nc3s2)C1 (stereo not drawn)	0.1	5	-7	4	5368	-4	4
O=C(NCCCCNC(=O)c1ccccn1)c1ccccn1	1.3	6	9	-10	4287	7	8
O=C(CSc1ccsc1[N+](=O)[O-])N1CCCCC1	5.9	6	3	8	2884	14	10
CC(C)CC1(C(=O)NCc2ccccn2)C=CCN1C(=O)c1ccccc1 (stereo not drawn)	5.1	2	-8	-10	3738	14	9
CS(=O)(=O)N1CCC(C(=O)NCCN2CCN(Cc3ccccc3)CC2)CC1	6.8	14	-13	-17	9661	9	15
COc1ccc(C=NNC(=O)c2nc(-c3ccccc3)cc(-c3ccccc3)n2)cc1O	-6.7	-5	nt	nt	nt	13	5
Cc1ccc(Nc2c3c(nc4ncnn24)CC(C)CC3)cc1 (stereo not drawn)	0.4	-13	3	-9	3867	1	9
Cc1ccc(S(=O)(=O)N2CCC(C(=O)OCC(=O)N3CCCCC3C)CC2)cc1C (stereo not drawn)	3.4	2	-4	-6	6391	-6	2
COc1ccccc1Nc1ncccc1C(=O)NCc1ccccc1	2.3	-2	-1	-16	20309*	16	9
O=C(OCCN=C1NS(=O)(=O)c2ccccc21)c1ccccc1F	4.0	12	-9	-18	5975	0	-8
Cc1ccc(CN2CCN(N=Cc3ccc(N(C)C)cc3)CC2)cc1	-0.3	1	nt	nt	nt	-2	1
CCOc1ccc(CN2CCN(CC(O)Cn3c4ccccc4c4ccccc43)CC2)cc1 (stereo not drawn)	0.8	4	0	4	10935	2	-1
O=[N+]([O-])c1ccc(S(=O)(=O)NCC(c2cccnc2)N2CCc3ccccc32)cc1 (stereo not drawn)	13	-1	7	-17	6806	9	0
Cc1cc(C)n(-c2nncn2NC(=O)c2ccc(Cl)cc2O)n1	8.1	7	-2	-15	2856	9	7
Fc1ccc(Oc2ncccn2)c(F)c1	-0.2	6	8	-19	2393	-4	10
Cc1c(NS(=O)(=O)c2ccc(Br)cc2)c(=O)n(-c2ccccc2)n1C	3.9	1	-4	-9	3548	1	-4
N#Cc1ncc(N=Cc2ccc(N(CCCl)CCCl)cc2)s1	3.4	2	nt	-10	4566	16	14
CC1CCCC(NC(=O)c2ccc(COc3ccccc3)o2)C1C (stereo not drawn)	3.2	13	-2	-18	6282	-6	-5
COc1ccc(OCC(O)CNC(=O)c2cccs2)cc1 (stereo not drawn)	2.4	2	6	-5	5244	2	0
Cc1cccc(C(=O)Nc2ccc(C(=O)NN=Cc3ccc4c(c3)OCO4)cc2)c1	0.8	-6	nt	nt	nt	-13	8
Cc1nn2c(-c3ccccn3)ccnc2c1Br	13	2	-1	-3	2487	11	2
Cc1ccccc1NC(=O)CCN1CCc2ccccc2C1	14	-70	-13	-24	3997	19	5
CC(=NNC(=O)c1ccc(F)cc1)c1ccc(N2CCOCC2)cc1	2.9	-1	nt	nt	nt	3	-1
Cc1ccc(-c2nc3ncccc3o2)cc1NC(=O)c1sc2ccccc2c1Cl	-1.5	-30	3	-18	7940	2	2
CCOC(=O)C1CCN(C(=O)CNC(=O)c2nn(-c3ccc(OC)cc3OC)c(=O)c3ccccc23)CC1	-2.0	-1	5	-5	4825	-10	-10
Cc1nc2ccccc2nc1OCc1cccc([N+](=O)[O-])c1	-0.6	8	1	-8	4574	0	7
CCCN(CC(=O)c1cc(C)n(C)c1C)S(=O)(=O)c1cccc(C(F)(F)F)c1	10.0	-1	1	6	2279	nt	nt
COc1ccc(CCN2C(=O)CC(Cc3ccccc3)C2=O)cc1OC (stereo not drawn)	5.3	4	-3	-26	4274	13	2
Cc1ccc(S(=O)(=O)N2CCN(C(=O)COC(=O)c3ccccn3)CC2)c(C)c1	-0.1	1	-13	-1	5110	2	0
CC(C)CNC(=S)NNC(=O)c1ccc2c(c1)OCO2	5.6	7	-15	-12	17145*	2	0
CC(C)N(C(=O)CSc1nc2c([nH]1)c(=O)n(C)c(=O)n2C)c1ccccc1	5.2	11	11	-7	6031	6	4
COc1ccc2nc(Cl)c(C3CC(c4ccco4)=NN3C(=O)CCC(=O)O)cc2c1 (stereo not drawn)	3.3	16	-1	-23	2494	9	5
O=C(N/N=C/C=C\c1ccccc1[N+](=O)[O-])c1cccnc1	nt	nt	-7	1	4390	nt	nt
COc1ccc([C@@H]2[C@@H]3C(=O)N(C(C)(C)C)C(=O)[C@@H]3[C@]3(C)C(=O)N(c4cccc(Br)c4)C(=O)N23)cc1	nt	nt	6	-7	2882	nt	nt
COc1ccc(N2CC(C(=O)Nc3nnc(SCC(=O)NCc4ccco4)s3)CC2=O)cc1 (stereo not drawn)	0.3	-7	3	2	6867	2	2
O=C(CNC(=O)C(c1ccccc1)c1ccccc1)N/N=C\c1ccc(C(=O)O)cc1	nt	nt	5	-19	4486	nt	nt
COc1ccc(NC(=O)CN(C)CC(=O)NC2CCC(C)CC2)cc1 (stereo not drawn)	-2.1	0	nt	10	3642	-6	6
COc1ccc(OCC(=O)N(Cc2ccco2)C2CCS(=O)(=O)C2)cc1 (stereo not drawn)	0.9	7	-1	nt	nt	4	-5
CC(NC(=O)COC(=O)C1=COCCO1)C12CC3CC(CC(C3)C1)C2 (stereo not drawn)	6.7	-1	3	-4	4582	11	8
COc1ccc(NC(=O)c2oc3ccccc3c2NC(=O)c2ccc3c(c2)OCO3)cc1	7.3	-4	2	-8	22577*	-6	4
CCN(Cc1ccccc1)C(=O)c1cc(-c2ccc(OC)c(OC)c2)nc2ccccc12	5.6	3	2	-1	5487	-11	1
CCN(CC)C(=O)[C@H]1C[C@H](CC(=O)NC/C=C(\C)CCC=C(C)C)C(=O)N2CCc3c([nH]c4ccc(Cl)cc34)[C@]12C	-0.1	-23	nt	-7	4038	4	9
N/C(=N\OC(=O)N1CCOCC1)c1ccc(Br)cc1	2.2	9	-6	-11	2577	1	15
O=C(/C=C/Nc1nccs1)C(F)(F)Cl	4.2	11	3	-22	4446	3	9
COc1ccc(CCn2c(=N)c(C(=O)NCc3ccco3)cc3c(=O)n4ccccc4nc32)cc1OC	3.0	2	nt	-16	4603	-1	9

Just Autofluor counter, Mtb hypoxia inh and Mtb hypoxia inh growth, for some of the entries so far:
smiles	Autofluor counter	Mtb hypoxia inh	Mtb hypoxia inh growth
CCN(Cc1ccccc1)C(=O)c1cc(-c2ccc(OC)c(OC)c2)nc2ccccc12	5487	-11	1
CCN(CC)C(=O)[C@H]1C[C@H](CC(=O)NC/C=C(\C)CCC=C(C)C)C(=O)N2CCc3c([nH]c4ccc(Cl)cc34)[C@]12C	4038	4	9
N/C(=N\OC(=O)N1CCOCC1)c1ccc(Br)cc1	2577	1	15
